Bioassay records as filed in PubChem.
Mtb growth – Mycobacterium tuberculosis H37Rv growth inhibition, cell based, confirmatory dose response (AID 1949); M. tuberculosis H37Rv growth inhibition; most inactive calls were filed without a number and no value below 0 was filed; one-dose inhibition, % at 10 µg/mL; IC50 in µg/mL for titrated hits; 100,000 tested, 1.6% active;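 active = confirmed in a dose series; inconclusive = about 50% or more but not retested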;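 note: bacteria grown 7 days with compound before Alamar blue readout; 0% = untreated bacteria and 100% = reference antibiotic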
* hit, by the source's call; i = inactive; ? = inconclusive. A portion of the library (hit frequency here may not be typical).

SMILES | Mtb growth
N#C/C(=C\c1ccc[nH]1)Sc1nc2ccccc2s1 | 4%
COc1ccc(NC(=O)Nc2ccc3c4c(cccc24)CC3)cc1OC | i
CCc1ccccc1NS(=O)(=O)c1cc(OC)ccc1OC | i
CCC1(C(=O)c2ccccc2)C2c3cc(Br)ccc3OC(=O)C21C(C)=O (stereo unspecified) | i
CCOc1ccccc1CN1CCN(S(=O)(=O)c2ccc(Cl)cc2)CC1 | 1%
Cc1ccc(-c2csc3ncn(CC(=O)NCc4ccccc4)c(=O)c23)cc1C | i
COc1ccc(S(=O)(=O)n2cc(-c3ccc(Cl)cc3)c(N)n2)cc1OC | 3%
CCC(C)Oc1cccc(OCCCCN2C(=O)NC(C)(C)C2=O)c1 (stereo unspecified) | i
Cc1ccc(-c2nnc3c4ccccc4c(C)nn23)cc1S(=O)(=O)N1CCOCC1 | i
Cc1ccc(SCCNC(=O)c2ccc(=O)[nH]c2)cc1 | i
COc1ccc(NC(=O)c2ccco2)cc1NC(=O)c1ccc2ccccc2c1 | 25%
COC(=O)c1c(NC(=O)Cc2ccc(OC)c(OC)c2)sc(C)c1C | i
O=C(Cn1cnc2ccccc2c1=O)Nc1cccc(Cl)c1Cl | i
CCc1cccc(OCCCCN2CCOCC2)c1 | 4%
COc1ccc(CN2CC(C(=O)O)CC2=O)cc1 (stereo unspecified) | i

Exported as labelled records: entries from further up
CCc1cccc(OCCCCN2CCOCC2)c1
  Mtb growth: 4%
CCC(C)Oc1cccc(OCCCCN2C(=O)NC(C)(C)C2=O)c1 (stereo unspecified)
  Mtb growth: i
Cc1ccc(SCCNC(=O)c2ccc(=O)[nH]c2)cc1
  Mtb growth: i
CCC1(C(=O)c2ccccc2)C2c3cc(Br)ccc3OC(=O)C21C(C)=O (stereo unspecified)
  Mtb growth: i

The listing continues.
SMILES | Mtb growth
COCC(=O)Nc1sc2c(c1C(=O)OC)C(C(=O)OC)CC2 (stereo unspecified) | i
CCSc1nc2cc(C(=O)OC)ccc2c(=O)n1CC | i
CCOC(=O)c1ccc(NC(=S)Nc2ccccc2OCC)cc1 | 32%
CC(C)(C)Nc1ncnc2c1cnn2Cc1ccccc1 | 2%
CSc1ccccc1NC(=O)CC(=O)Nc1ccccc1SC | i
Cc1ccc(/C=C/c2nc(-c3ccccc3O)n[nH]2)o1 | ?
O=C(O)C12CC3CC(C1)CC(c1ccccc1)(C3)C2 | 15%
Cc1c(C(=O)Nc2ccc3oc(-c4ccc(F)cc4Cl)nc3c2)cccc1[N+](=O)[O-] | 0%
O=C(Nc1ccc(SC(F)F)cc1)c1cc2ccccc2oc1=O | 4%
Cc1cc(C(=O)OC(C)C)c(NC(=O)CSc2ccccc2)s1 | i
O=c1[nH]c(/C=C/c2cccc3ccccc23)nc2ccccc12 | 14%
CC(C)C(NS(=O)(=O)c1ccc(F)c(Cl)c1)C(=O)O (stereo unspecified) | i
COc1cc(C(=O)Oc2ccc3c(c2)C(C)CC(C)(C)N3)cc(OC)c1OC (stereo unspecified) | i
O=C1CSC2=NC3=C(CCc4ccccc43)C(c3cccc4ccccc34)N12 (stereo unspecified) | 2%
COc1ccc(S(=O)(=O)Nc2ccc(OC)c(Cl)c2)cc1C | i
O=C(CS(=O)(=O)c1ccccc1)Nc1nnc(Cc2ccccc2)s1 | i
CC(=O)Nc1c(C#N)c(C(C)(C)C)cn1C | i
COc1ccc(C(=O)CCNc2cccc(Cl)c2)cc1 | i
CNC(=O)C1=C(C)Nc2nc3ccccc3n2C1c1ccc(F)cc1 (stereo unspecified) | i
O=C1NC(c2ccccc2)=C([N+](=O)[O-])C(c2cccc(Cl)c2)N1 (stereo unspecified) | 3%
CC(Oc1ccc(Br)cc1)C(=O)O/N=C(\N)c1ccccn1 (stereo unspecified) | i
CCOCCC(=O)Nc1ccc(Cl)cc1 | i
CN(C)C(=S)c1ccc2ccccc2n1 | i
CCN1C(=O)c2cccc3c(N4CCCC4)ccc(c23)C1=O | i
CC(=O)c1cccc(OC(=O)c2cccs2)c1 | 20%
Cn1nnnc1SCC(=O)Nc1ccc(Br)cc1Cl | i
CCCOc1ccc(NC(=O)c2cc3cc(OC)ccc3oc2=O)cc1 | i
Cc1ccc(C)c(OS(=O)(=O)c2ccc(Cl)c(Cl)c2)c1 | i
COc1ccc(NC(=O)Nc2ccc(Cc3ccncc3)cc2)c(OC)c1 | i
CN(C)CCNC(=S)NC(=O)c1ccccc1 | 4%
C=CCNC(=S)Nc1cccc(C)c1C | 0%
COCc1cc(C)nc(SCC(=O)N2CCC(C)CC2)c1C#N | i
O=S(=O)(Oc1cc(Cl)ccc1Cl)c1ccc(Cl)cc1 | 4%
Cc1oc2ccc(OC(=O)c3ccc(F)cc3)cc2c1C(=O)OC(C)C | 2.4µg/mL*
COc1ccc2oc(=O)c(-c3cc(OC)c(OC)cc3Br)cc2c1 | i
Cc1cccc(CN2CCN(Cc3c[nH]c4ccccc34)CC2)c1 | i
c1ccc(-c2nnc(Sc3nc4ccccc4s3)c3ccccc23)cc1 | 1%
Cc1cccc(NC(=O)c2cccc3c(Br)cccc23)c1C | i
CC(C)CN(CC(C)C)C(=O)CS(=O)(=O)Cc1ccccc1 | i
COC(=O)C1CCN(C(=O)Cc2ccccc2OC)CC1 | 3%
COc1ccc(C2C(C(=O)N3CCOCC3)=C(C)NC3=C2C(=O)CC(C)(C)C3)cc1O (stereo unspecified) | i
O=C(NCc1ccccc1)NC(=O)c1ccc(Cl)cc1 | i
CCc1ccc2[nH]c(C)c(CN3CCOCC3)c(=O)c2c1 | 4%
COc1cc2c(cc1OC)CN(C(=S)NS(=O)(=O)c1ccc(C)cc1)CC2 | i
COc1ccccc1CN1CCN(Cc2ccccc2[N+](=O)[O-])CC1 | i

Four entries from above, reformatted:
O=C(NCc1ccccc1)NC(=O)c1ccc(Cl)cc1
  Mtb growth = i
CCc1ccc2[nH]c(C)c(CN3CCOCC3)c(=O)c2c1
  Mtb growth = 4%
COc1cc2c(cc1OC)CN(C(=S)NS(=O)(=O)c1ccc(C)cc1)CC2
  Mtb growth = i
COc1ccccc1CN1CCN(Cc2ccccc2[N+](=O)[O-])CC1
  Mtb growth = i

Part of the list above, as comma-separated lines.
Molecule,Mtb growth
c1ccc(-c2nnc(Sc3nc4ccccc4s3)c3ccccc23)cc1,1%
Cc1cccc(NC(=O)c2cccc3c(Br)cccc23)c1C,i
CC(C)CN(CC(C)C)C(=O)CS(=O)(=O)Cc1ccccc1,i
COC(=O)C1CCN(C(=O)Cc2ccccc2OC)CC1,3%

Continued:
SMILES | Mtb growth
C=CCn1c(SCC(=O)NCc2ccc(OC)cc2)nnc1-c1ccc([N+](=O)[O-])cc1 | i
COc1ccc(S(=O)(=O)Nc2cccc(Br)c2)cc1C | 3%
CCOc1ccc(-c2c(C)sc(N)c2C(=O)OC)cc1 | 12%
O=c1[nH]c2ccc(S(=O)(=O)Nc3ccc(Cl)cc3)cc2[nH]1 | 13%
CC1=C(C(=O)Nc2cc(C)ccc2C)C(c2ccc(F)cc2)NC(=S)N1 (stereo unspecified) | i
O=C(CCSc1ccc(Cl)cc1)Nc1ccc2c(c1)OCCO2 | i
CN1C(=O)c2cccc3c(C(=O)c4ccccc4)ccc(c23)C1=O | 2%
C=CCn1c(COc2cccc(Cl)c2)nnc1SCC(=O)O | i
O=C1CCC(c2ccccc2)N1C(=O)c1cccnc1 (stereo unspecified) | i
O=C(Nc1cnccn1)C1c2ccccc2Oc2ccccc21 | i
C=CCn1c(COc2ccc(C(C)C)cc2)nnc1SCC(=O)NCc1ccccc1 | i
COc1ccc(CNC(=O)c2cc3cc(Cl)ccc3oc2=O)cc1 | 8%
CCc1ccccc1NC(=O)CN(Cc1ccc(C)cc1)S(=O)(=O)c1ccccc1 | i
CCOC(=O)c1[nH]c(C)c(/C(O)=C2\C(=O)C(=O)N(CCCN(CC)CC)C2c2ccco2)c1C (stereo unspecified) | i
CCCCc1[nH]nc2c1C(c1ccc(OC)c(OCc3ccccc3)c1)C(C#N)=C(N)O2 (stereo unspecified) | i
Cc1ccccc1-c1cc(C(=O)N2CCN(c3ccc([N+](=O)[O-])cc3)CC2)c2ccccc2n1 | 6%
O=C(c1cc2c(=O)n3ccccc3nc2s1)N1CCN(Cc2ccc3c(c2)OCO3)CC1 | i
COc1ccc(NC(=O)c2cn(CCC#N)nc2-c2ccc(OC)c(OC)c2)cc1 | i
COC(=O)c1ccc(C2c3c(oc4ccc(Br)cc4c3=O)C(=O)N2Cc2ccc(OC)cc2)cc1 (stereo unspecified) | i
CN(C(=O)CSc1nc(-c2ccccc2)cc(=O)[nH]1)c1ccccc1 | i
Cc1ccc(Cl)cc1N1CCN(C(=O)c2ccc(N(C)S(=O)(=O)c3ccccc3)cc2)CC1 | 7%
Cc1ccccc1C(=O)N1CCN(c2nc(N3CCOCC3)nc(N3CCOCC3)n2)CC1 | i
CC(CCO)Nc1nc2c([nH]1)c(=O)n(C)c(=O)n2C (stereo unspecified) | 1%
O=C(Nc1ccccc1OC(F)(F)C(F)F)c1ccc(Cl)cc1Cl | 22%
c1cncc(-c2nc(NCc3ccco3)c3ccccc3n2)c1 | i
CCOC(=O)c1ccc(NC(=O)COc2ccc(S(=O)(=O)NCCc3ccccc3)cc2)cc1 | i
O=c1oc2cc(O)c(Cl)cc2c2ccccc12 | i
COc1ccc(C(C)C)cc1S(=O)(=O)Nc1cccc(Cl)c1C | i
Cc1cccc(OCCCC(=O)Nc2ccccc2Cl)c1 | i
CCc1c(C)nc2c(C)cccc2c1SCCC(=O)O | i
COc1ccc2c3c(c(=O)oc2c1OCC(N)=O)CCCC3 | i
CCCc1nnc(NC(=O)CSc2nnc3c(n2)[nH]c2ccccc23)s1 | i
CC(C)C(=O)Nc1ccc(C(=O)c2ccccc2)cc1NC(=O)C(C)C | i
CCN(Cc1ccccc1)CC(O)COc1ccccc1 (stereo unspecified) | i
CCOc1ccc(NC(=S)N2CCN(CCN3C(=O)c4cccc5cccc(c45)C3=O)CC2)cc1 | i
COc1ccc(CNC(=O)COc2ccccc2C(=O)NCCc2ccc(OC)c(OC)c2)cc1 | i
CCOc1ccccc1C(=S)N1CCCCC1 | 13%
Cc1oc2c(C)c3oc(=O)c4ccccc4c3cc2c1-c1ccccc1 | i
CC(=O)Nc1cccc(OC(=O)N2CCOCC2)c1 | i
COc1ccc(C(=O)COC(=O)c2ccccc2NC(=O)c2ccccc2)cc1 | i
CN(C)CCNC(=S)Nc1ccccc1F | i
CCCCOc1ccccc1NC(=O)CCCOc1ccc(Cl)cc1Cl | i
CCC1CCc2c(sc(NC(=O)c3cccc(OC)c3)c2C(N)=O)C1 (stereo unspecified) | i
COC(=O)Cc1c(C)c2cc(Cl)c(OCc3ccc(C(=O)OC)cc3)cc2oc1=O | 1%
O=c1oc2ccccc2c2c1SC(C(F)(F)F)C2 (stereo unspecified) | 23%

Reprinted from the part before: 3 compounds, followed by the next part.
SMILES | Mtb growth
CCC1CCc2c(sc(NC(=O)c3cccc(OC)c3)c2C(N)=O)C1 (stereo unspecified) | i
COC(=O)Cc1c(C)c2cc(Cl)c(OCc3ccc(C(=O)OC)cc3)cc2oc1=O | 1%
O=c1oc2ccccc2c2c1SC(C(F)(F)F)C2 (stereo unspecified) | 23%
CCC(=O)Nc1ccc(S(=O)(=O)Nc2ccc(C)cc2)cc1 | 6%
CS(=O)(=O)N(CC(=O)Nc1ccccc1C(=O)NCc1ccccc1)c1cccc([N+](=O)[O-])c1 | i
OCc1cn(-c2ccccc2)nc1-c1cccs1 | 4%
COc1ccc(S(=O)(=O)N2CCSCC2)cc1 | 1%
COc1ccc(C(=O)Nc2c(Cl)cc(Cl)cc2C(=O)NCC2CCCO2)cc1 (stereo unspecified) | i
O=[N+]([O-])c1ccc2nonc2c1N1CCCCC1 | i
C=CCN(C(=O)c1ccc(Cl)cc1Cl)c1nnc(-c2ccncc2)s1 | i
COC(=O)c1cn(C(=O)CCC2CCCC2)c2ccccc12 | i
Cc1cc(NS(=O)(=O)c2ccc(NC(=O)COc3cc(Cl)ccc3Cl)cc2)nc(C)n1 | i
O=C(CSc1nnnn1-c1ccccc1)Nc1cccc2nsnc12 | i
CCOc1cc(S(=O)(=O)N2CCN(c3ccc(F)cc3)CC2)c(C)cc1C | i
Fc1ccccc1Cn1c(-c2cccs2)nc2ccccc21 | 1%
C=CCn1c(SCC(=O)N2c3ccccc3Sc3ccccc32)nnc1-c1ccncc1 | i
COc1ccccc1C(=O)Nc1nnc(SCC(=O)Nc2ccccc2F)s1 | i
Cc1cccc(C)c1OS(=O)(=O)c1ccc(Br)cc1 | i
CCOC(=O)CN1C(=O)C(O)(CC(=O)c2ccc(C)cc2)c2ccccc21 (stereo unspecified) | i
CCC(=O)N1CCN(c2ccc(NC(=O)c3cc4ccccc4o3)cc2)CC1 | i
Cc1cc(C)nc(NC(=O)NC(=O)c2ccccc2)n1 | i
COCCNCC(=O)C12CC3CC(CC(C3)C1)C2 | i
CCCCN1C(=O)C(O)(CC(=O)c2cccs2)c2cc(Br)ccc21 (stereo unspecified) | i
CCc1cccc2c(C=O)cn(CC(=O)O)c12 | i
O=C(CN(c1ccccc1)S(=O)(=O)c1ccc(Cl)cc1)NC1CC2CCC1C2 (stereo unspecified) | i
O=S(=O)(/N=C(\c1ccccc1)N1CCCCC1)c1ccc(Br)cc1 | i
CC(C)c1ccc(NC(=O)c2ccccc2F)cc1 | i
CCn1c(Cc2ccccc2)nnc1SCC(=O)Nc1ccc2c(c1)OCCO2 | i
O=C(Nc1ccc(I)cc1C(=O)NCc1cccnc1)c1ccc(Cl)cc1 | i
CCCCNCCCOc1ccc(Br)cc1C | 1%
O=C(Nc1ccc(Cl)cc1C(=O)N1CCCCCC1)c1ccco1 | 1%
CCc1ccc(-n2c(-c3ccccc3)n[nH]c2=S)cc1 | i
COc1cc(NC(=S)NCc2ccccc2Cl)cc(OC)c1 | 15%
CCOC(=O)N1CCN(c2nc(=S)n(-c3ccccc3)c(C)c2C(C)=O)CC1 | i
